Screening results (PubChem BioAssay)
MITF inh = inhibitors of MITF, primary screen, MITF inhibitor project, cell-based, luminescence | TRPM1 promoter luciferase, 24 h | hit rate 0.28% among 37,000 | inhibition, % (concentration not given with the values) | AID 2240, 2010;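 active = most replicates at 85% or more, or half of them and the mean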;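 also: human melanocyte line stably carrying TRPM1 promoter luciferase reporter; 0% = vehicle wells and 100% = a positive control; the first replicate is given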
Shh pathway inh = Hedgehog pathway signaling inhibitors, primary screen, luminescence, Shh-LIGHT2 cells, Gli-luciferase; Shh-LIGHT2 Gli-luciferase reporter, 30 h; hit rate 2.1% among 22,000; inhibition, % (concentration not given with the values);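 active = replicate mean of 65% or more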;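 also: pathway switched on by Shh-conditioned medium diluted 1 in 25 in low serum; 100 nL library stock added to about 40 µL; 0% = median of neutral wells and 100% = positive control level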
YB-1 expression = inhibitors of YB-1 gene expression, primary screen, cell-based, fluorescence; delta delta Cp (YB-1 minus CDIP) (concentration not given with the values); U2OS, qRT-PCR YB-1 vs CDIP delta delta Cp, 16 h; stronger effect = higher value; zero = DMSO, each unit about twofold; hit rate 0.37% among 30,000; AID 434959, 2010;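 active = delta delta Cp rounded down to an integer at or above 3, about 3 SD of DMSO wells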;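 also: higher means less YB-1 transcript or more CDIP transcript relative to DMSO; stock transfer was 100 nL into about 100 µL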
PD-1 reverse act = activators reversing PD-1 mediated T-cell inhibition, primary screen, luminescence, primary human CD4 T cells, PD-L1 beads; CellTiter-Glo 96 h; activation, % (no concentration beside the values); 29,000 tested, under 10 active; AID 2316, 2010;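 active = replicate mean of 50% or more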;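 also: 0% = median vehicle wells and 100% = positive control; 100 nL library stock added to about 50 µL; numbers are from one replicate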
Numbers without * were called inactive; . = no result given. Not all compounds are listed; count on the stated rates, not on these rows.

item	SMILES	MITF inh	Shh pathway inh	YB-1 expression	PD-1 reverse act
1	Cc1ccc(S(=O)(=O)N(C)C[C@@H]2Oc3ccc(NC(=O)c4ccncc4)cc3CC(=O)N([C@H](C)CO)C[C@@H]2C)cc1	4.1	-5.2	-0.00958	.
2	C[C@@H]1CN([C@H](C)CO)C(=O)Cc2cc(NS(=O)(=O)c3ccc(Cl)cc3)ccc2O[C@H]1CN(C)S(=O)(=O)c1cccs1	0.9	-21.8	0.183	-2.7
3	C[C@@H]1CCCCO[C@H](CN(C)C(=O)CCCN(C)C)[C@@H](C)CN([C@H](C)CO)C(=O)c2cc(NS(=O)(=O)c3cn(C)cn3)ccc2O1	-0.1	-22.1	-0.211	.
4	CSc1sc(C(=O)NN)c2c1C1(CCC2)SCCS1	-3.1	33.4	-0.332	0.6
5	COc1cc(Cl)c(C)cc1NC(=O)C(CC(C)C)N1C(=O)c2ccccc2C1=O (stereo not drawn)	37.2	.	.	-0.1
6	COC(=O)c1ccccc1NC(=O)Cn1cnc2sc(C)c(C)c2c1=O	4.2	.	.	-0.2
7	Cc1noc(C)c1NC(=O)Nc1cccc2c1O[C@@H](CN(C)C(=O)Nc1c(C)noc1C)[C@H](C)CN([C@@H](C)CO)C2=O	-0.7	12.6	-0.107	1.5
8	C[C@@H]1CN([C@H](C)CO)C(=O)c2cc(NC(=O)CCN3CCOCC3)ccc2O[C@H]1CN(C)S(=O)(=O)c1ccccc1	1.9	-9.5	19.7*	1.1
9	C[C@H](CO)N1C[C@H](C)[C@@H](CN(C)C(=O)Nc2ccc(C(F)(F)F)cc2)Oc2c(NC(=O)CCCCCC(=O)Nc3ccccc3N)cccc2C1=O	-5.1	.	-1.06	-3.1
10	Cc1ccc(S(=O)(=O)N(C)C[C@H]2Oc3c(NS(=O)(=O)c4ccccc4)cccc3C(=O)N([C@H](C)CO)C[C@@H]2C)cc1	-6.9	-11.1	-0.421	0.9
11	CCOc1ccc2nc(SCc3c(F)c(F)c(F)c(F)c3F)[nH]c2c1	-67.3	15.4	0.404	-1.7
12	C[C@@H]1CCCCO[C@H](CN(C)C(=O)CCCN(C)C)[C@@H](C)CN([C@H](C)CO)C(=O)c2cc(NC(=O)c3ccccc3)ccc2O1	5.0	-23.9	-0.0737	1.1
13	CC(C)(Oc1ccc(Cl)cc1)C(=O)NCc1ccco1	0.8	.	.	0.9
14	C[C@@H]1CN([C@H](C)CO)C(=O)c2cc(NC(=O)Nc3ccc(F)cc3)ccc2O[C@@H]1CN(C)Cc1ccc(-c2ccccc2)cc1	25.0	-105.6	0.0356	.
15	CNC[C@H]1OCCCC[C@@H](C)Oc2ccc(NS(=O)(=O)c3ccc(C)cc3)cc2C(=O)N([C@H](C)CO)C[C@@H]1C	2.2	.	-0.29	1.3
16	C[C@@H]1CN([C@H](C)CO)C(=O)Cc2cc(NS(C)(=O)=O)ccc2O[C@@H]1CN(C)S(=O)(=O)c1cccs1	-4.1	28.0	0.0433	.
17	C[C@H]1CN([C@@H](C)CO)C(=O)Cc2cc(NC(=O)CCC(F)(F)F)ccc2O[C@@H]1CN(C)Cc1ccc(Oc2ccccc2)cc1	8.2	-38.3	-0.201	.
18	Cc1ccc(-n2c(Cn3ncc4ccccc4c3=O)n[nH]c2=S)c(Br)c1	-19.4	.	.	1.2
19	Cc1ccc(S(=O)(=O)Nc2ccc3c(c2)CC(=O)N([C@@H](C)CO)C[C@@H](C)[C@@H](CN(C)Cc2ccccc2)O3)cc1	6.0	8.5	-0.0265	0.9
20	COc1ccc(S(=O)(=O)Nc2ccc3c(c2)C(=O)N([C@H](C)CO)C[C@H](C)[C@H](CN(C)C(=O)CCCN(C)C)OCCCC[C@@H](C)O3)cc1	-1.3	-32.7	-0.011	1.7

Along the list, as entered above.
Compounds 1–8 in PD-1 reverse act: ., -2.7, ., 0.6, -0.1, -0.2, 1.5, 1.1
Compounds 1–8 in MITF inh: 4.1, 0.9, -0.1, -3.1, 37.2, 4.2, -0.7, 1.9

(further entries)
item	SMILES	MITF inh	Shh pathway inh	YB-1 expression	PD-1 reverse act
21	C[C@H](CO)N1C[C@H](C)[C@@H](CN(C)C(=O)Nc2ccc(F)cc2)Oc2c(NC(=O)Nc3ccc4c(c3)OCO4)cccc2C1=O	-15.6	-13.7	0.413	-0.5
22	Cc1noc(C)c1NC(=O)N(C)C[C@@H]1Oc2ccc(NC(=O)CCN3CCOCC3)cc2CC(=O)N([C@@H](C)CO)C[C@@H]1C	-2.4	-24.2	-0.177	.
23	C[C@H]1CN([C@@H](C)CO)C(=O)c2cc(NC(=O)CCCCCC(=O)Nc3ccccc3N)ccc2O[C@H]1CN(C)S(=O)(=O)c1cn(C)cn1	-12.7	.	-0.148	2.0
24	CO[C@H]1C=C[C@@](C)(O)/C=C/C(=O)O[C@H](C)[C@@H](C)CC/C=C\1C	1.4	1.8	-0.34	-0.2
25	COc1ccc(S(=O)(=O)N(C)C[C@H]2Oc3ccc(NS(=O)(=O)c4ccc(Cl)cc4)cc3CC(=O)N([C@@H](C)CO)C[C@@H]2C)cc1	-7.9	-19.8	0.0303	2.6
26	CC(C)NC(=O)Nc1cccc2c1O[C@@H](CN(C)C(=O)Nc1cccc3ccccc13)[C@H](C)CN([C@H](C)CO)C2=O	-9.9	-2.2	0.154	1.9
27	COc1ccc(-c2csc3ncn(CC(=O)Nc4sc5c(c4C#N)CCC5)c(=O)c23)cc1OC	-16.3	.	.	1.1
28	Cc1ccc(S(=O)(=O)N(C)C[C@@H]2Oc3ccc(NC(=O)Cc4cn(C)c5ccccc45)cc3C(=O)N([C@@H](C)CO)C[C@@H]2C)cc1	28.4	.	-0.0199	-1.8
29	COc1ccc(/C=C/C=N/n2c(SC)nnc2-c2ccccc2)cc1	14.4	53.9	-0.411	0.2
30	C[C@H]1CN([C@@H](C)CO)C(=O)c2cccc(NC(=O)Nc3cccc4ccccc34)c2O[C@@H]1CN(C)S(=O)(=O)c1ccc(F)cc1	-2.5	-18.3	-0.561	-0.5
31	C[C@H]1CN([C@@H](C)CO)C(=O)c2cccc(NC(=O)Nc3ccccc3)c2O[C@@H]1CN(C)S(=O)(=O)c1ccccc1	-8.8	-93.9	-0.112	2.1
32	C[C@@H]1CN([C@@H](C)CO)C(=O)c2cc(NC(=O)CCCCCC(=O)Nc3ccccc3N)ccc2O[C@@H]1CN(C)C	1.0	.	0.141	0.6
33	C[C@H]1CN([C@@H](C)CO)C(=O)Cc2cc(NC(=O)CCN3CCOCC3)ccc2O[C@@H]1CN(C)C(=O)Nc1ccc2c(c1)OCO2	-3.4	32.5	0.238	2.6
34	Cc1noc(C)c1NC(=O)N(C)C[C@@H]1Oc2ccc(NC(=O)CCCCCC(=O)Nc3ccccc3N)cc2CC(=O)N([C@H](C)CO)C[C@@H]1C	5.2	.	-0.391	1.7
35	Cc1ccc(S(=O)(=O)Nc2cccc3c2O[C@H](CN(C)S(=O)(=O)c2ccccc2)[C@H](C)CN([C@H](C)CO)C3=O)cc1	-5.8	-11.3	-0.017	-1.2
36	C[C@H]1CN([C@@H](C)CO)C(=O)c2cc(NS(C)(=O)=O)ccc2O[C@H]1CN(C)S(=O)(=O)c1ccc(Cl)cc1	-13.1	3.0	0.445	1.3
37	C[C@H]1CN([C@@H](C)CO)C(=O)c2cccc(NC(=O)Nc3ccc(F)cc3)c2O[C@@H]1CN(C)Cc1ccc2c(c1)OCO2	-15.9	-17.3	-0.107	-2.1
38	CNC[C@H]1Oc2ccc(NC(=O)C3CC3)cc2C(=O)N([C@H](C)CO)C[C@H]1C	-1.0	-40.1	-0.212	.
39	C[C@@H]1CN([C@@H](C)CO)C(=O)c2cc(NC(=O)c3ccncc3)ccc2O[C@H]1CN(C)Cc1ccc(C(F)(F)F)cc1	-12.0	.	0.0927	-1.5
40	CCn1c(SCC(N)=O)nnc1-c1sc2cc(Cl)ccc2c1Cl	4.9	.	.	-1.4

Next results.
Every second line gives: MITF inh	Shh pathway inh	YB-1 expression	PD-1 reverse act
41: C[C@H](CO)N1C[C@H](C)[C@H](CN(C)C(=O)Nc2ccc3c(c2)OCO3)Oc2ccc(NC(=O)Nc3ccc(C(F)(F)F)cc3)cc2CC1=O
    15.2	19.2	-0.198	-0.8
42: On1onc2c3cc(-c4ccccc4)nc3ccc21
    40.7	99.3*	0.131	-2.9
43: C[C@@H]1CN([C@H](C)CO)C(=O)Cc2cc(NS(=O)(=O)c3cccs3)ccc2O[C@H]1CN(C)C(=O)Nc1ccccc1
    -6.8	37.1	-1.29	0.3
44: COc1ccc(S(=O)(=O)Nc2ccc3c(c2)CC(=O)N([C@@H](C)CO)C[C@@H](C)[C@@H](CN(C)S(C)(=O)=O)O3)cc1
    2.2	30.8	-0.0147	0.5
45: Cc1ccc(NC(=O)CC2NC3CCCCC3NC2=O)cc1C (stereo not drawn)
    -13.0	.	.	2.0
46: COc1ccc(-c2cc(=O)c3cc(OC)ccc3o2)cc1
    17.5	-13.6	0.183	.
47: C[C@@H]1CN([C@H](C)CO)C(=O)c2cc(NC(=O)Nc3cccc4ccccc34)ccc2O[C@@H]1CN(C)S(=O)(=O)c1ccccc1
    1.1	12.1	-0.134	0.7
48: COC(=O)c1sccc1N/C=C(\C#N)S(=O)(=O)C(C)(C)C
    -11.5	.	-0.46	0.1
49: CNC[C@H]1Oc2c(NS(=O)(=O)c3ccc(C)cc3)cccc2C(=O)N([C@H](C)CO)C[C@@H]1C
    -2.5	-35.5	-0.0167	1.0
50: C[C@@H]1CN([C@H](C)CO)C(=O)c2cc(N(C)C)ccc2O[C@H]1CN(C)C(=O)NC1CCCCC1
    3.3	7.9	0.0705	0.8
51: C[C@H]1CN([C@@H](C)CO)C(=O)c2cccc(NS(=O)(=O)c3ccccc3)c2O[C@H]1CN(C)CC1CC1
    -3.8	57.6	0.0911	1.6
52: C[C@@H]1CN([C@H](C)CO)C(=O)c2cc(NC(=O)NC3CCCCC3)ccc2O[C@H]1CN(C)C(=O)Nc1ccc(C(F)(F)F)cc1
    12.6	-31.6	0.0214	0.3
53: COc1ccc(S(=O)(=O)Nc2cccc3c2O[C@H](CN(C)Cc2ccc(-c4ccccc4)cc2)[C@H](C)CN([C@@H](C)CO)C3=O)cc1
    -2.0	13.0	-0.154	-0.9
54: COc1ccc(NC(=O)Nc2ccc3c(c2)C(=O)N([C@H](C)CO)C[C@H](C)[C@H](CN(C)C(=O)Nc2c(C)noc2C)O3)cc1
    -10.2	-16.0	0.244	1.7
55: CNC[C@@H]1Oc2ccc(NC(=O)CCCN(C)C)cc2C(=O)N([C@H](C)CO)C[C@H]1C
    -5.9	-57.7	0.0639	1.0
56: COc1ccc(C2OCC3C2CO[C@H]3c2ccc(OC)c(OC)c2)cc1OC (stereo partly drawn)
    12.3	-46.4	-0.717	1.6
57: Cc1noc(C)c1NC(=O)N(C)C[C@@H]1Oc2ccc(NC(=O)Nc3ccc(C(F)(F)F)cc3)cc2C(=O)N([C@H](C)CO)C[C@H]1C
    10.2	-76.0	-0.0654	.
58: C[C@@H]1CN([C@H](C)CO)C(=O)Cc2cc(NC(=O)Nc3ccc4c(c3)OCO4)ccc2O[C@H]1CN(C)C(=O)Nc1ccc2c(c1)OCO2
    7.3	-7.3	0.248	.
59: Cc1ccc(S(=O)(=O)N(C)C[C@H]2Oc3ccc(NC(=O)Nc4ccc(F)cc4)cc3C(=O)N([C@@H](C)CO)C[C@H]2C)cc1
    13.4	-25.2	0.12	2.9
60: O=C(O)CC(C(=O)Nc1ccc(Cl)cc1)N1CCCC1 (stereo not drawn)
    2.3	.	.	0.6
61: C[C@@H]1CN([C@H](C)CO)C(=O)c2cc(NC(=O)CCN3CCOCC3)ccc2O[C@@H]1CN(C)S(=O)(=O)c1ccc(F)cc1
    0.0	-21.3	-0.303	.

Pulled one by one from the list above (3):
Every second line gives: MITF inh	Shh pathway inh	YB-1 expression	PD-1 reverse act
41: C[C@H](CO)N1C[C@H](C)[C@H](CN(C)C(=O)Nc2ccc3c(c2)OCO3)Oc2ccc(NC(=O)Nc3ccc(C(F)(F)F)cc3)cc2CC1=O
    15.2	19.2	-0.198	-0.8
44: COc1ccc(S(=O)(=O)Nc2ccc3c(c2)CC(=O)N([C@@H](C)CO)C[C@@H](C)[C@@H](CN(C)S(C)(=O)=O)O3)cc1
    2.2	30.8	-0.0147	0.5
61: C[C@@H]1CN([C@H](C)CO)C(=O)c2cc(NC(=O)CCN3CCOCC3)ccc2O[C@@H]1CN(C)S(=O)(=O)c1ccc(F)cc1
    0.0	-21.3	-0.303	.
